Screening results as filed in PubChem BioAssay.
MARV entry inh – blocks Marburg virus binding to or entry into cells; Marburg virus pseudotyped entry inhibition, cell reporter; control for the full effect not named in the record; about a third of the inactives were read at about 46 µM; Potency, µM (series often up to 37.8 µM), for inactives: top-dose activity change, negative = inhibition, hits mostly inhibitors; 300,000 compounds, 1.8% hits; AID 540276; active = well fitted inhibition curve with a large enough effect; inconclusive = small, poorly fitted or top-dose-only effect, or effect the other way; inactive = flat fitted curve, though single readings scatter; tested in HEK293 cells; about a fifth of its hits are not listed in these tables; also: % is scaled to controls: 0 for no effect and ±100 for the full control effect; luciferase read-out
NS1 function inh – inhibitors of influenza NS1 protein function | Potency, µM (doses to about 46.1 µM), without a hit: at the highest dose activity, positive = more growth | 270,000 compounds, 0.4% hits | S. cerevisiae slowed by influenza A NS1, growth recovery by OD600 | AID 2326; also: actives are rising curves; nearly all actives have a fitted effect of over 50% in size
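Compounds were scored for reversing the slow growth caused by influenza A NS1 in S. cerevisiae, measured by optical density at 600 nm. Assay medium contained 2% galactose at pH 6.0; NS1-free yeast of the same strain were the positive control.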
RE007 growth inh – less growth of the S. pombe RE007 Vpr strain | S. pombe RE007 Vpr strain, BacTiter-Glo ATP luminescence, 24 h; control for the full effect not named in the record | Potency, µM (top dose mostly 92.2 µM), for inactives: at the highest dose activity change, negative = less growth | 360,000 compounds, 0.21% hits | AID 651644; active = well fitted falling curve with a large enough effect; inconclusive = small, poorly fitted or top-dose-only effect; inactive = no such curve, though single readings can be large or run the other way;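 also: % is scaled to controls: 0 for no effect and ±100 for the full control effect; nearly all actives have a fitted effect of over 50% in size; the assay follows cell death caused by Vpr and the record does not say whether a fall means rescue or toxicity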
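Fission yeast strain RE007, carrying one chromosomally integrated HIV-1 vpr copy, was seeded at OD 0.01 in PMG+AL medium with 23 nL pinned compound. After 24 h at 30 °C and 99% humidity, viability was read by BacTiter-Glo luminescence.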
SARS PLP yeast – inhibitors of SARS-CoV papain-like protease in yeast; AID 485353; 330,000 compounds, 0.19% hits; Potency, µM (highest dose often 32.9 µM), for inactives: at the highest dose activity, positive = growth rescue; S. cerevisiae expressing SARS-CoV PLpro, growth rescue; control for the full effect not named in the record; also: 0% is about no effect; nearly all actives have a fitted effect of over 55% in size; growth read by luminescence after 48 h
LASV entry inh – inhibitors of Lassa virus binding or cell entry. Lassa virus pseudotype entry inhibition, cell reporter; control for the full effect not named in the record. Potency, µM (top dose mostly 37.9 µM), for the others: at the top dose activity change, negative = inhibition, usual class: inhibitors. 300,000 compounds, 1.2% hits; active means well fitted inhibition curve with a large enough effect; inconclusive means small, poorly fitted or top-dose-only effect, or effect the other way; inactive means flat fitted curve, though single readings scatter; tested in HEK293 cells; also: % is scaled to controls: 0 for no effect and ±100 for the full control effect; nearly all actives have a fitted effect of over 50% in size; luciferase read-out
Cruzain inh Det – blocks cruzain activity in presence of Triton detergent; P25779; purified cruzain, Z-FR-AMC fluorescence, 0.01% Triton; Potency, µM, inactives show max response, negative = inhibition, actives largely listed as inhibitors; 200,000 compounds, 0.43% hits; active = well fitted curve in the direction sought with a large enough effect; inconclusive = small, poorly fitted or top-dose-only effect, or another doubt; inactive = no such curve, though single readings can be large; an effect the other way counts as inactive or inconclusive;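 also: plate controls were neutral wells for no effect and buffer without enzyme for full effect; nearly all actives have a fitted effect of over 40% in size; top concentration of the series not given in the record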
Target sequence (P25779 123-467 limits assumed): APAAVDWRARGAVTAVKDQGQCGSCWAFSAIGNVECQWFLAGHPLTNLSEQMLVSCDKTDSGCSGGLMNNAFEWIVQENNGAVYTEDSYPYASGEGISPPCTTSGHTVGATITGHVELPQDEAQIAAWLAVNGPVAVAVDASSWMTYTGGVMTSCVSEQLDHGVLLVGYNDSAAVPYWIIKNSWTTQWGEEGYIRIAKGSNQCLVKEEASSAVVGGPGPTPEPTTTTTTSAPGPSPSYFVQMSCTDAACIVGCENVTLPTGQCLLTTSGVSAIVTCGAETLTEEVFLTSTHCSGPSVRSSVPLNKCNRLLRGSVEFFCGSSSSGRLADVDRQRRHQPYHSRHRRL
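Steps: dispense cruzain (1.5 nM final) in acetate buffer pH 5.5 with DTT and 0.01% Triton X-100; pin-transfer compounds; incubate 15 min RT; add Z-FR-AMC (2 uM final); read fluorescence every 30 s, using the 60 s intensity change.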
Cruzain noTriton – blocks cruzain activity in detergent-free assay | AID 1476 | 200,000 compounds, 2.3% hits | Potency, µM, without a hit: max response, negative = inhibition, actives largely listed as inhibitors | P25779 | purified cruzain, Z-FR-AMC fluorescence, no detergent; active = well fitted curve in the direction sought with a large enough effect; inconclusive = small, poorly fitted or top-dose-only effect, or another doubt; inactive = no such curve, though single readings can be large; an effect the other way counts as inactive or inconclusive;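 also: plate controls were enzyme without inhibitor for no effect and buffer without enzyme for full effect; nearly all actives have a fitted effect of over 40% in size; top concentration of the series not given in the record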
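Purified cruzain at 1.5 nM, pre-incubated 15 min with compound at room temperature in 100 mM sodium acetate pH 5.5, 5 mM DTT, 0.00005% Triton X-100. Reaction started with 2 uM Z-FR-AMC; AMC fluorescence increase over 60 s gives rate.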
StopGo reporter – FMDV 2A StopGo reporter, luciferase signal. human cells with a luciferase reporter of 2A StopGo recoding; control for the full effect not named in the record. Potency, µM (highest dose often 57.9 µM), for inactives: at the top dose signal change, negative = less light. 410,000 compounds, 1.2% hits; active = well fitted falling curve with a large enough effect; inconclusive = small, poorly fitted or top-dose-only effect; inactive = no such curve, though single readings can be large or run the other way; tested in HEK293T cells; also: % is scaled to controls: 0 for no effect and ±100 for the full control effect; nearly all actives have a fitted effect of over 45% in size; luciferase light after 4 h
* marks the source's active call; other numbers are inactive results; ? = inconclusive; . = no result given; & = joins results of further samples; [ ] = remark or other dose. Unless noted, calls follow the shape of the dose curve; as a rule, active means well fitted rising curve with a large enough effect; inconclusive means small, poorly fitted or top-dose-only effect; inactive means no such curve, though single readings can be large or run the other way. Potency is read from the fitted curve at half-maximal effect.

SMILES	MARV entry inh	NS1 function inh	RE007 growth inh	SARS PLP yeast	LASV entry inh	Cruzain inh Det	Cruzain noTriton	StopGo reporter
O=C(Cc1c(F)cccc1Cl)N1CCOCC1	?	6%	-2%	1%	6%[46.1 µM]	.	.	40%[activator]
COc1cc2c(cc1OC)C(=O)N(C)CC2	.	0%	-8%	1%	.	1.5%	0%	-11%
Cc1cccc(OCC(=O)Nc2ncn[nH]2)c1C	.	-1%	17%	0%	.	.	.	36%[activator]
Cc1ncc(CO)c2cc(-c3nnc(Nc4ccc5c(c4)OCO5)s3)c(=O)oc12	-6%[46.1 µM]	2%	8%	-3%	20%	.	.	-10%
O=C(CCC(=O)Nc1ccccc1)NNC(=O)c1cccs1	5%	8%	3%	1%	14%	4.7%	-6%	10%
CCCc1nnc(SCC(=O)N2CCCC2)n1CC1CCCO1 (configuration not stated)	12%	1%	-12%	-3%	0%	4.5%	-11%	-5%
CN1CCN(c2nc(-c3ccncc3)nc3ccccc23)CC1	7.9µM*	-25%	-3%	5%	-5%	-2.2%	-10%	-15%
COc1ccc(-c2cc(C(F)(F)F)n3nc(-c4ccc(Cl)cc4)cc3n2)cc1OC	15%[46.1 µM]	.	.	.	16%[46.1 µM]	-0.2%	7%	-10%
Cc1ccc(C)c(S(=O)(=O)c2nnn3c2nc(N2CCCCC2)c2sccc23)c1	.	.	.	.	-33%[46.1 µM]	-7.1%	?	0%
Cc1ccc(C)c(N2CCN(S(=O)(=O)c3c(C)[nH]c(C)c3C(=O)N3CCCCC3)CC2)c1	?	?	-1%	3%	-7%[46.1 µM]	.	.	-9%
COc1cccc(OCC(=O)NNC(=O)C(=O)Nc2cccc(C)c2)c1	.	-14%	-16%	-5%	.	.	.	26%
COc1cc(CN2CCN(Cc3ccc4cc(F)ccc4n3)CC2CCO)cc(OC)c1 (configuration not stated)	?	7%	-3%	2%	4%[46.1 µM]	.	.	37%[activator]
CCOC(=O)c1cnc(-n2nc(C)cc2C)[nH]c1=O	.	4%	-2%	-1%	.	.	.	-12%
Cc1cccc(NC(=O)COC(=O)Cc2cccc(C(F)(F)F)c2)c1C	.	2%	-10%	-11%	.	-4.9%	-3%	-18%
O=C(NCc1ccco1)c1cccnc1Cl	3%	9%	2%	-5%	-1%	-22%	-19%	-11%
Oc1c(Br)cc(Br)cc1C=Nc1ccc2c(c1)OCO2	?	4%	?	-22%	-26%	-2.8%	?	-8%
COc1ccc2[nH]c(=O)c(CN(C(=O)c3cccnc3)c3ccccc3)cc2c1	-5%	9%	-10%	-2%	9%	0.5%	5%	-20%
COc1ccc(C(=O)Nc2ccc(S(=O)(=O)Nc3nccnc3OC)cc2)cc1	13%	13%	34%	15%	10%	-2.2%	10%	-5%
O=[N+]([O-])c1ccc(C2=CSC3=NCCN23)cc1	13%	.	-16%	.	3%	.	.	0%
COc1ccc(/C=C/C(=O)Nc2nc3n(n2)C(c2ccc(F)cc2)C=C(c2ccccc2)N3)cc1 (configuration not stated)	20%[46.1 µM]	.	.	.	2%[46.1 µM]	-6.8%	15%	2%
COC(=O)c1ccc(N=C2SCC(=O)N2C)cc1	-21%[46.1 µM]	7%	12%	-2%	8%[46.1 µM]	.	.	7%
CC(C)(C)NC(=O)CSc1nc(N)c(NC(=O)c2ccccc2F)c(=O)[nH]1	?	.	-14%	0%	-2%	.	.	-13%
O=C(NCc1ccccc1Cl)C1CCC(=O)N1Cc1ccc(F)cc1 (configuration not stated)	.	-3%	3%	2%	.	.	.	0%
CC(=O)N1CC(=O)N=C1SCC(=O)Nc1nc(C)c(-c2ccccc2)s1	-7%	.	-9%	1%	-15%	.	.	-27%

An excerpt from above, limited to StopGo reporter.
mol	StopGo reporter
COc1cccc(OCC(=O)NNC(=O)C(=O)Nc2cccc(C)c2)c1	26%
COc1cc(CN2CCN(Cc3ccc4cc(F)ccc4n3)CC2CCO)cc(OC)c1 (configuration not stated)	37%[activator]

(listing goes on)
SMILES	MARV entry inh	NS1 function inh	RE007 growth inh	SARS PLP yeast	LASV entry inh	Cruzain inh Det	Cruzain noTriton	StopGo reporter
CC1CCN(C(=O)CNS(=O)(=O)c2ccc(Br)s2)CC1	0%	16%	12%	8%	?	7.3%	13%	34%[activator]
Cc1cc(C(F)F)n2nc(C(=O)Nc3c(F)cc(F)cc3Br)nc2n1	13%[46.1 µM]	7%	10%	2%	14%	0.6%	-3%	?
COCCSc1ccccc1C(=O)N1CCC(Cc2ccccc2)CC1	.	-1%	-4%	-1%	.	.	.	-18%
O=C(N/N=C/c1ccc[nH]1)c1cccc(Br)c1	?	-9%	-3%	-8%	?	-8.4%	-1%	21%
COc1cc(C2c3cc4c(cc3CC3COC(=O)N32)OCO4)cc(OC)c1OC (configuration not stated)	?	.	0%	.	?	.	.	-8%
Cc1ccc(N(C)S(=O)(=O)c2ccc3c(c2)CC(C)N3C(=O)C2CC2)cc1 (configuration not stated)	.	-21%	-8%	-8%	.	.	.	-20%
Cc1ccc(NC(=O)C(C)N2C(=O)c3ccccc3S2(=O)=O)cc1Cl (configuration not stated)	0%[46.1 µM]	.	16%	-12%	-21%	.	.	-20%
O=C(NNC(=O)C1CCC1)c1ccc(Br)cc1	-2%[46.1 µM]	.	-15%	12%	1%	.	.	11%
O=C(CSc1nnc2n(C3CCCCC3)c(=O)c3ccccc3n12)OC1CCCCC1	-2%	0%	-2%	-4%	-3%	-3.3%	12%	-3%
COc1cc2[nH]c(=S)n(Cc3ccccc3)c(=O)c2cc1OC	?	3%	18%	1%	-2%	.	.	-20%
Cc1ccccc1-c1nnn(Cc2ccc(-c3nn[nH]n3)cc2)n1	11%[46.1 µM]	1%	5%	-1%	0%	.	.	9%
COc1ccccc1NC(=S)N(CCN1CCOCC1)Cc1ccccc1F	?	-4%	-4%	0%	?	.	.	-4%
CC(=O)c1ccc(N2CCN(c3ncnc4c3cnn4-c3cc(Cl)ccc3C)CC2)cc1	.	.	.	.	0%[46.1 µM]	0.4%	-12%	14µM*
Cc1cc(Br)ccc1NC(=O)CN(C)C(=O)CNC(=O)Cc1ccccc1	8%	.	-10%	-1%	2%	.	.	-19%
Cc1ccc2[nH]c3c(c2c1)CN(C(C)C)CC3	0%[46.1 µM]	-3%	-14%	2%	-1%[46.1 µM]	.	.	-5%
Cc1ccc(C)c(N2CCN(C(=O)C3CCN(S(=O)(=O)c4cccc5nsnc45)CC3)CC2)c1	?	?	0%	-3%	?	-5.3%	-2%	22µM*
NS(=O)(=O)c1ccc(CNC(=O)CSc2nc3ccc(Cl)cc3[nH]2)cc1	?	27%	3%	0%	9%	.	.	-5%
CCCn1c(O)c(N=N)c2ccccc21	8%[46.1 µM]	2%	-23%	-2%	15%[46.1 µM]	.	.	7%
COC(=O)[C@H](CCSC)NC(=O)Nc1ccc(C(C)=O)cc1	7%	-1%	11%	-1%	.	-1.2%	-2%	-9%
COc1ccccc1Cc1nc2ccccc2nc1SCC(=O)NCc1ccccc1Cl	.	.	.	.	2%[46.1 µM]	2.5%	0%	7%
CCOC(=O)c1ccc(NC(=S)N(CCCN2CCCCC2)Cc2ccco2)cc1	13µM*	2%	-4%	2%	-17%	-0.6%	-2%	-2%
CCc1nc(NC2CCCCC2)c(C#N)c2c1COC(C)(C)C2	2%&2%	-12%	29%	-6%	-1%	-7.8%	5%	?
OCCCCNCc1cc(Br)ccc1OCc1ccccc1F	?	8%	-2%	1%	?	.	.	-25%
Cc1ccc(C)c(Nc2nn3c(=O)c4ccc(C(=O)N(C)Cc5ccccc5)cc4nc3s2)c1	.	.	.	.	21%[46.1 µM]	-22%	?	5%
Cc1cccc(N2CCN(C(=O)c3ccc(N4CCCC4=O)cc3)CC2)c1C	?	-7%	-5%	-1%	-14%	-2.8%	17%	?
Cc1c(C)n(Cc2ccc(F)cc2)c2ccc(C(=O)NCCCN3CCOCC3)cc12	?	8%	5%	2%	?	.	.	-25%
CC(Oc1ccc2c3c(c(=O)oc2c1)CCC3)C(=O)NCc1ccccn1 (configuration not stated)	.	9%	-1%	4%	.	.	.	-9%
Oc1ccc2cccnc2c1	?	3%	-1%	-5%	3%	5.5%	-6%	-8%
O=[N+]([O-])c1ccccc1S(=O)(=O)N1CCN(C2CCN(Cc3ccccc3)CC2)CC1	?	4%	-15%	?	?	.	.	-5%
O=C(Nc1nnc(SCc2ccccc2F)s1)c1ccco1	.	2%	2%	-28%	.	-2.3%	8%	8%
CC(C)(C)c1ccc(/C=N/OCC(=O)NCc2ccccc2)cc1	?	10%	-5%	?	?	-11%	9%	-12%
CCc1cc2c3c(c1)/C(=C1/SC(N)=NC1=O)C(=O)N3C(C)(C)C=C2C	1%	1%	23%[3.69 µM]	15%	?	2.9%	5%	10%
COc1cccc(NC(=S)NNC(=O)Cn2nc(C(F)(F)F)cc2C)c1	13%	4%	.	-3%	-3%	-3.1%	-1%	-9%
Cc1cccc(-n2ncc(C#N)c2-n2cccc2)c1	-7%	-14%	2%	8%	-5%	3.7%	-5%	-26%
Cc1cc(-c2nc3ncccc3o2)ccc1NC(=O)c1ccc(Cl)cc1	4%[46.1 µM]	.	.	.	-1%[46.1 µM]	1.4%	-4%	-18%
COc1ccc2oc(C(=O)Nc3ccccn3)c(C)c2c1	?	-51%	-28%	-8%	-20%[46.1 µM]	.	.	?

Molecules above that have a nitro group on carbon (2):
SMILES	MARV entry inh	NS1 function inh	RE007 growth inh	SARS PLP yeast	LASV entry inh	Cruzain inh Det	Cruzain noTriton	StopGo reporter
O=[N+]([O-])c1ccc(C2=CSC3=NCCN23)cc1	13%	.	-16%	.	3%	.	.	0%
O=[N+]([O-])c1ccccc1S(=O)(=O)N1CCN(C2CCN(Cc3ccccc3)CC2)CC1	?	4%	-15%	?	?	.	.	-5%
